TRPML1 ag: qHTS for Agonists of the Human Mucolipin Transient Receptor Potential 1 (TRPML1) | Mucolipin-1 (Homo sapiens), Q9GZU1 | TRPML1-expressing cells, Ca2+ dye fluorescence, FDSS; host cell line not named in the record; reference of the full effect not given here | activation, % (concentration not given with the values) | actives 0.12% (n = 410,000) | AID 624414, 2012; in the data active = activation above about 50%; inconclusive = about 30% to 50%; inactive = below about 30%; note: 0% is about no effect; the text of the record puts the active cut at 80%
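Tetracycline-induced TRPML1-DL cells are seeded and incubated overnight before loading with a no-wash Ca2+ dye and quencher. Agonist activity is taken from the 110 s fluorescence read following compound pin-transfer on an FDSS, before EC80 54-4 challenge.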
Six1-Eya2 blk: qHTS Assay for Inhibitors of the Six1/Eya2 Interaction. activity change, % (no concentration beside the values). AlphaScreen GST-Six1/His-Eya2 binding, biochemical; hits give low values; control for the full effect not named in the record. Homeobox protein SIX1 (Homo sapiens) + Protein phosphatase EYA2 (Homo sapiens), …. actives 0.56% (n = 360,000). AID 651725, 2012; in the data active = activity change below about -65%; inconclusive = about -30% to -65%; inactive = above about -30%; note: % is set by controls: 0 for no effect and ±100 for the full control effect; compound concentration not given in the record
Target sequence (O00167 whole entry, looked up): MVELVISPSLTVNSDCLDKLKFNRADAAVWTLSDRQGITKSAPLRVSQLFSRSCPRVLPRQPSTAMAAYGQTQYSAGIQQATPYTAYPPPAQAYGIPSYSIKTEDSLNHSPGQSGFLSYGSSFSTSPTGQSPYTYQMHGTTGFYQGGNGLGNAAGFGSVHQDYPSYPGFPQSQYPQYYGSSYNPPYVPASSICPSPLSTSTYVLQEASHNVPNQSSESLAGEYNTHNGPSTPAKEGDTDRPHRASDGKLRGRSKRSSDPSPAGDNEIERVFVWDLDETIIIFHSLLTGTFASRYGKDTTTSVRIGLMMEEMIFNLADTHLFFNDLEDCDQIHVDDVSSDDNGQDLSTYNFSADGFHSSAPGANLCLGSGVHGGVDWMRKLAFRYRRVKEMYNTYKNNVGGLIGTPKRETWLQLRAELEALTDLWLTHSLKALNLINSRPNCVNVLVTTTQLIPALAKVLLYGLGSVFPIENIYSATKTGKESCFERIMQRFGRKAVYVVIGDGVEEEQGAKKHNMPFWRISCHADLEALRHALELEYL
Target sequence (Q15475 whole entry, looked up): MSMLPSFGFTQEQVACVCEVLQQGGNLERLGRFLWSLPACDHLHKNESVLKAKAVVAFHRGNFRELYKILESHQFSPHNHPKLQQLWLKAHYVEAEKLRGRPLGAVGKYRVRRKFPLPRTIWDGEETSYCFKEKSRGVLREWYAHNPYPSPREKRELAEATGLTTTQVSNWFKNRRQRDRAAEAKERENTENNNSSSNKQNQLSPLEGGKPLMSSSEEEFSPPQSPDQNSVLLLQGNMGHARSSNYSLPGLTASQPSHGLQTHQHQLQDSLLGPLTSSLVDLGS
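Six1/Eya2 binding was read as AlphaScreen signal after compounds were pinned into GST-Six1 plus His-tagged Eya2 (5X stock 250/500 nM) in pH 8.0 Tris/NaCl/TCEP buffer, beads added, then incubated 1 h, 37 C, dark.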
PINK1 modulator: A Quantitative High throughput Screen to Identify Chemical Modulators of PINK1 Expression. PINK1 immunofluorescence, high-content cytometry, 24 h. Potency, µM (series often up to 76.6 µM), inactives show top-dose activation (PINK1 increase), usual class: activators. actives 0.2% (n = 410,000); active = well fitted activation curve with a large enough effect; inconclusive = small, poorly fitted or top-dose-only effect; inactive = flat fitted curve, though single readings scatter; cell line not stated here;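 note: potency is the fitted concentration of half-maximal effect; % of control where 0% means no effect; nearly all actives have a fitted effect of over 65% in size; a mitochondrial uncoupler was the plate control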
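Fluorescence from anti-PINK1 antibody, together with nuclear and cell stains, was scanned on a laser-scanning cytometer. Before staining, stable-line cells were incubated 24 hours with compounds at 5 concentrations; primary antibody 12 h at 10 degrees C.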
TRPML1 blocker: qHTS for Inhibitors of the Human Mucolipin Transient Receptor Potential 1 (TRPML1). Mucolipin-1 (Homo sapiens), Q9GZU1. activity change, negative = inhibition, % (no concentration beside the values). TRPML1-inducible cells, Ca2+ dye fluorescence, FDSS; hits give low values; inhibition of EC80 agonist-evoked calcium signal. actives 0.02% (n = 390,000). AID 624415, 2012; in the data active means activity change below about -50%; inconclusive means about -30% to -50%; inactive means above about -30%;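 note: stimulus is agonist 54-4 at its EC80 concentration; % is set by controls: 0 for no effect and ±100 for the full control effect; compound concentration not given in the record; the text of the record puts the active cut at -80%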
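Tet-induced TRPML1-DL cells loaded with Ca8 no-wash calcium dye were read kinetically on FDSS. Compound addition was followed by EC80 agonist 54-4 (4 uM final); inhibition was read over 110 s.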
CtBP-E1A blk: qHTS Assay for Inhibitors of the CtBP/E1A Interaction | CtBP / adenovirus E1A interaction (AlphaScreen) | AlphaScreen GST-E1A/His-CtBP binding, 1536-well; hits give low values; control for the full effect not named in the record | activity change, % (concentration not given with the values) | actives 0.49% (n = 340,000) | AID 651724, 2012; in the data active means activity change below about -65%; inconclusive means about -30% to -65%; inactive means above about -30%; note: % is set by controls: 0 for no effect and ±100 for the full control effect
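Protein mix (5X: 125 nM each GST-E1A, His-CtBP) was incubated with pinned compound 2 h at 37 deg C in dark, in 50 mM Tris pH 8.0 buffer with 300 mM NaCl. Glutathione donor and nickel acceptor beads followed; AlphaScreen signal read after 1 h.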
D2 ag: Beta-Arrestin HTS for Positive Allosteric Modulators of the Human D2 Dopamine Receptor: Agonists. D(2) dopamine receptor (Homo sapiens), P14416. DiscoveRx PathHunter D2 beta-arrestin, luminescence, 90 min; 100% = 57 uM dopamine signal. activation, % (test concentration not listed). actives 0.084% (n = 360,000). AID 624465, 2012; in the data active = activation above about 40%; inconclusive = about 15% to 40%; inactive = below about 15%; note: compound concentration not given in the record; the text of the record calls up to 30% inactive
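DiscoveRx PathHunter D2 beta-arrestin cells (2,100/well) attached overnight, then compound-stimulated 90 min at 37 C in HBSS/10 mM HEPES/0.1% Tween-20 buffer; beta-galactosidase complementation read by luminescence after 1 h at ambient temperature. Dopamine 57 uM final (EC100) as control.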
Active calls of the source: *; ? = inconclusive; . = not tested or not shown; [ ] = dose if it differs, or a comment.

Values run as follows: D2 ag	TRPML1 ag	Six1-Eya2 blk	CtBP-E1A blk	PINK1 modulator	TRPML1 blocker
C=CCN(C(=O)C1=NN(C2CCS(=O)(=O)C2)C(=O)CC1)c1nc(-c2ccc([N+](=O)[O-])cc2)cs1 (centres undefined)
  4.6	-0.1	-11	-2	1.6%	-6
COc1cccc(-c2ccc(C#N)c(=O)[nH]2)c1
  1.3	1.9	-3	3	1.0%	-2
COc1ccc(C(CNC(=O)CNC(=O)c2cc(OC)c(OC)c(OC)c2)N2CCOCC2)cc1 (centres undefined)
  -3.5	-1.0	0	2	1.4%	12
c1ccc(N=Nc2cn[nH]c2-c2ccco2)cc1
  5.4	1.6	-29	-26	-0.8%	-6
O=C(c1ccc(S(=O)(=O)N2CCOCC2)cc1)N1CCN(c2ccccc2)CC1
  -0.2	-0.1	4	1	0.8%[38.3 µM]	18
CCOC(=O)CSc1ccc(-c2nc3ccccc3[nH]2)cn1
  2.2	1.0	-2	-6	3.7%	20
O=C(Nc1cccc(F)c1)N(Cc1ccc(Cl)cc1)CC(O)C(F)(F)F (centres undefined)
  3.0	-0.3	1	8	?	24
Cc1ccc2nc(NS(=O)(=O)c3ccc(Cl)cc3)c(Nc3ccc(C(=O)O)cc3)nc2c1
  .	0.9	.	.	-0.2%	13
O=C(CCc1ccccc1)Nc1cc2c(cc1Cl)OCCO2
  12	2.2	4	-10	-0.2%	18
COc1ccc(F)cc1C(=O)C1CCCN(Cc2cccn2-c2cccnc2)C1 (centres undefined)
  -4.1	1.2	2	.	0.0%	-18
CC(C)CC(NS(=O)(=O)c1ccc2c(c1)oc(=O)n2C)C(=O)NCc1ccccc1Cl (centres undefined)
  .	-0.6	.	.	3.9%	9
CCc1nc2c(OCc3ccc(OC)cc3)cccn2c1N(C)C(=O)c1ccc(OC)cc1
  -5.0	-0.2	3	-8	-0.3%	17
Cc1ccc(-n2c3c(cc(C(=O)O)c2=O)C(=O)CC(C)(C)C3)cc1
  -3.2	-0.2	14	-1	-0.8%	2
COc1ccccc1CCNC(=O)CN1C(=O)c2ccccc2S1(=O)=O
  1.6	-0.4	1	3	2.8%	-10
Cc1[nH]c2ccc(Br)cc2c(=O)c1CN1CCCCC1
  -1.9	-0.1	1	5	.	-2

Entries from the list above that contain a COOH group:
Values run as follows: D2 ag	TRPML1 ag	Six1-Eya2 blk	CtBP-E1A blk	PINK1 modulator	TRPML1 blocker
Cc1ccc2nc(NS(=O)(=O)c3ccc(Cl)cc3)c(Nc3ccc(C(=O)O)cc3)nc2c1
  .	0.9	.	.	-0.2%	13
Cc1ccc(-n2c3c(cc(C(=O)O)c2=O)C(=O)CC(C)(C)C3)cc1
  -3.2	-0.2	14	-1	-0.8%	2

More results
Values run as follows: D2 ag	TRPML1 ag	Six1-Eya2 blk	CtBP-E1A blk	PINK1 modulator	TRPML1 blocker
O=c1c2c3c(sc2nc2n1CCCC2)CCC3
  -2.9	0.7	-2	7	.	-5
O=C(NNC(=S)Nc1ccc(Cl)cc1)c1ccccc1
  -5.5	0.3	-11	-8	-1.5%	-6
COc1ccc(NC(=O)C(OC(=O)c2ccc([N+](=O)[O-])o2)c2ccccc2)cc1Cl (centres undefined)
  ?	0.7	-16	-3	0.9%	2
c1ccc(NCc2nnc3n2CCCCC3)cc1
  0.5	0.3	3	-3	-4.7%[38.3 µM]	-6
O=C(CCN1C(=O)/C(=C/c2ccccc2Cl)SC1=S)NNC(=O)c1cccnc1
  6.1	0.1	-15	-10	1.8%	0
COc1ccc(NC(=O)N2CCC(n3nnc4cc(C)ccc43)CC2)cc1
  0.4	0.5	-2	2	3.4%	12
CCOc1ccc(CNC(=O)CN2C(=O)CCn3nc(-c4cn(C)c5ccccc45)cc32)cc1OC
  .	-0.3	.	.	5.5%	-1
CC(=O)N1CCCc2cc(S(=O)(=O)Nc3cccc(C)c3C)ccc21
  -1.1	-0.1	16	0	2.4%	-6
COC(=O)C1CCN(C(=O)C(C)Oc2ccc(Cl)cc2Cl)CC1 (centres undefined)
  -0.4	0.9	-1	0	2.2%[38.3 µM]	9
CC(=O)N1CC(C)Oc2ccc(S(=O)(=O)NC(CC(=O)O)c3ccccc3C)cc21 (centres undefined)
  -2.7	-0.5	3	4	-0.5%	3
NC(=O)C(=O)N/N=C/c1c2ccccc2cc2ccccc12
  -2.5	0.4	-11	-14	?	10
COc1ccccc1C(=O)NCCC(=O)Nc1cccc(S(=O)(=O)N2CCCC2)c1
  1.1	0.0	-2	.	0.1%	0
COc1cccc(C2[C@H](C)C3(CCN2C)OCCO3)c1 (some centres undefined)
  -6.6	-0.2	8	0	3.9%	-6
Cc1cc(C)nc(/N=C(\NC(=O)C(C)(C)C)Nc2ccccc2)n1
  -4.4	1.7	7	2	5.4%	19
CC1(C(=O)NCc2cc(F)cc(C(F)(F)F)c2)C=CC2(CCCCC2)N1C(=O)c1ccccc1 (centres undefined)
  -0.4	1.0	2	10	8.3%	39

(list continues)
Values run as follows: D2 ag	TRPML1 ag	Six1-Eya2 blk	CtBP-E1A blk	PINK1 modulator	TRPML1 blocker
Cc1cc(CN(C)C(=O)c2cc(COc3ccc(C)c(C)c3)on2)n[nH]1
  0.6	2.8	-2	2	-0.3%	17
Cc1ccc(C)n1-c1ccc(C(=O)NN)cc1
  -4.2	-0.5	-17	7	3.0%	7
Cc1ccc(C2=NS(=O)(=O)N(C)C(C(=O)NC3CCCC3)=C2)cc1
  2.7	0.2	-6	-4	2.2%	1
O=c1cnn(-c2ccccc2)c(-c2ccccc2)c1
  -0.6	3.8	7	10	0.6%[38.3 µM]	27
O=C1C=CC(=O)N1Cc1cccnc1
  6.6	-0.1	2	7	2.7%	4
CC(C)(C)OC(=O)C[C@@H]1C/C=C\C[C@H](CC(=O)N[C@H](CO)Cc2ccccc2)C(=O)N2CCC[C@H]2COC1=O
  -0.9	-0.2	7	3	-0.1%	-9
CCc1nc2sc3c(Cl)ncnc3c2c2c1CCCC2
  -1.1	0.6	-3	5	0.2%	-4
COc1ccc(-c2coc3cc(OC)cc(O)c3c2=O)cc1
  -3.8	2.4	6	6	6.2%	65
CC(=O)NCCC(=O)N1CCc2c([nH]c3ccccc23)C1c1cccc(C)c1 (centres undefined)
  2.0	1.0	-12	-3	0.6%	7
Cc1cc(C)nc(SCc2ccc(C(=O)NN=C3CCCC3)cc2)n1
  -4.1	2.3	-5	8	2.0%	-4
CCC(C)c1ccc(O)c(NC(=S)NC(=O)c2cccs2)c1 (centres undefined)
  -17	-0.3	-16	-12	-1.6%	-10
Cc1ccc(N2CC(C(=O)Nc3cccnc3)CC2=O)cc1C (centres undefined)
  -2.8	-0.5	5	-9	0.6%	5
Cn1c(SCc2ccccc2C#N)nnc1-c1ccncc1
  -0.9	0.1	3	6	-1.3%	-4
COC(=O)C(Cc1ccccc1)NC(=O)CSc1nc(C)cc(=O)[nH]1 (centres undefined)
  -2.4	0.1	8	4	0.7%	21
COC(=O)c1cc2oc3ccccc3c2n1Cc1ccc(Cl)cc1
  .	0.5	.	.	-0.1%	-23

Other records.
Values run as follows: D2 ag	TRPML1 ag	Six1-Eya2 blk	CtBP-E1A blk	PINK1 modulator	TRPML1 blocker
CCOc1ccc(CC2S/C(=N/N=C/c3ccco3)NC2=O)cc1 (centres undefined)
  -2.7	0.0	7	-22	5.0%	-3
COc1ccc(N2CCN(C(=O)Cn3cnc4c3c(=O)n(C)c(=O)n4C)CC2)cc1
  0.1	-0.3	2	-5	-1.0%	8
COc1cccc(-n2nnnc2SCC(=O)c2ccc(NC(C)=O)cc2)c1
  -0.6	-0.1	-2	0	23%[38.3 µM]	4
COc1ccc(-c2nnc(SCC(=O)NC3CCCCC3)o2)cc1
  2.1	-0.4	-1	2	0.4%	3
O=C(NC(Cc1ccccc1)C(=O)O)/C(=C/c1ccc(Cl)cc1)NC(=O)c1ccco1 (centres undefined)
  3.6	0.1	8	-1	2.3%	-9
Clc1nc2ccccc2cc1-c1nnn(-c2ccccc2Br)n1
  -4.7	0.0	-7	-3	-0.3%	29
C/C(=N\NC(=O)c1ccco1)c1ccc(NC(=O)C(F)(F)F)cc1
  -3.4	-0.3	-19	-2	-0.5%	-12
CCC1=C(OC(=O)c2ccccc2)C(C)(C)C(c2ccccc2)OC1=O (centres undefined)
  -3.7	6.4	-3	-3	1.6%	65
O=C(Nc1cccc([N+](=O)[O-])c1)Nn1cnnc1
  -5.9	0.3	2	1	-1.1%	7
Cc1nn(CC(=O)NC2CC2)c(=O)c2cc3cc(F)ccc3n12
  .	0.1	.	.	-0.5%	-13
Cc1ccc(C(=O)COC(=O)CNC(=O)C(c2ccccc2)c2ccccc2)cc1[N+](=O)[O-]
  -14	-0.4	7	8	1.0%	-1
CCCCN1C[C@H](C)[C@@H](CC(=O)Nc2ccc(OC)cc2)C1=O
  0.3	.	-1	4	2.3%	.
Cc1csc(NC(=O)CN2C(=O)C3CC=CCC3C2=O)n1 (centres undefined)
  -0.7	-0.4	2	3	-1.2%	24
COc1ccc(-n2c(C)cc(C(=O)Cn3nc(C(=O)O)c4ccccc4c3=O)c2C)cc1
  3.4	3.5	-8	-11	2.8%	-4
CC(C)c1ccc(NC(=O)C(C)N(c2ccccc2)S(C)(=O)=O)cc1 (centres undefined)
  .	-0.7	.	.	2.9%	5

Later entries:
Values run as follows: D2 ag	TRPML1 ag	Six1-Eya2 blk	CtBP-E1A blk	PINK1 modulator	TRPML1 blocker
Cn1c2ccc(F)cc2c2nc3ccccc3nc21
  2.1	-0.6	-5	-15	1.0%	-10
Cc1[nH]c2ccccc2c1C(=O)COc1ccccc1
  -1.4	2.2	2	7	2.2%	7
Cc1ccc(-n2nc(C)c3c2OC(N)=C(C#N)C3c2ccc(C)o2)cc1 (centres undefined)
  -1.5	0.6	-1	-2	.	2
COc1ccc(CNC(=O)COc2ccc(S(=O)(=O)N3CCCCC3)cc2)cc1
  -3.2	0.8	-7	5	1.0%	13
CN(C)CC(C(=O)c1ccccc1)c1ccccc1 (centres undefined)
  -8.1	0.1	0	-2	-2.8%	-9
O=C1CCCN1CCCNc1ncnc2c1cnn2-c1ccc(Cl)cc1
  1.6	-0.6	-10	0	0.8%	-2
C=CC1=C(C(=O)O)N2C(=O)C(NC(=O)Cc3ccccc3)C2SC1 (centres undefined)
  -2.5	-0.2	-24	-10	.	-11
Cc1ccc(OCC(=O)Nc2cccc(OCc3cc(=O)n4cccc(C)c4n3)c2)cc1C
  .	0.3	.	.	3.3%	2
Cc1nn(-c2ccccn2)c2c1-c1nc(N3CCOCC3)ncc1CC2
  -1.8	0.2	2	1	-3.0%	-4
Cn1nccc1-c1coc2c(C(=O)N3CCOCC3)cccc12
  -1.5	-0.5	0	4	3.0%	.

Screens: PubChem BioAssay, National Center for Advancing Translational Sciences (NCATS)
